Screening results deposited in PubChem by National Center for Advancing Translational Sciences (NCATS).
HSD17B inhib = inhibitors of human HSD17B10 dehydrogenase. Q99714. recombinant HSD17B10, NADH fluorescence kinetic; many of its hits are not listed in these tables. Potency, µM (series often up to 57.1 µM), for the others: at the top dose activity change, negative = inhibition, usual class: inhibitors. 7.6% of 75,000 active. AID 893; active means well fitted inhibition curve with a large enough effect; inconclusive means small, poorly fitted or top-dose-only effect; inactive means no such curve, though single readings can be large or run the other way;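 further: the protocol describes HADH2 (HSD17B10) and not the HSD17B4 of the title; nearly all actives have a fitted effect of over 70% in size; most hits overshoot -100% by far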
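Enzyme plus compound, 15 min room temperature; substrate mix added (NAD+ 1 mM, beta-hydroxybutyryl-CoA 90 uM final); plates read kinetically for NADH fluorescence. HADH2 was His-tagged, E. coli-derived, 20 nM.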
Active calls of the source: *; ? = inconclusive; [ ] = dose if it differs, or a comment. On the % scale 0 is the no-effect control and ±100 the full control effect; potency means the concentration at half of the fitted maximal effect.

No.	Molecule	HSD17B inhib
1	Cc1nn(-c2ccccc2)c2[nH]c(=O)c(CNc3ccc(N4CCOCC4)cc3)cc12	-16%
2	COc1ccc(OC)c(S(=O)(=O)N(C)CC(=O)O)c1	14%
3	COc1ccccc1NC(=O)C1=C(C)NC(=O)NC1c1ccccc1F (stereo not drawn)	-9%
4	O=C(Nc1nc(-c2nc3ccccc3s2)cs1)c1ccco1	-3%
5	NC(=O)C1CCN(C(=O)CSc2ccccn2)CC1	-7%
6	CSc1nc2sc3c(c2c(=O)[nH]1)CCCC3	-6%
7	COCCN1Cc2c(sc(C)c2C)N(C(=O)c2ccccc2)C1	-12%
8	CCOc1ccccc1NC(=O)c1cccc2c1C(=O)N(CCOC)C2	-14%
9	O=S(=O)(c1ccccc1C(F)(F)F)N1CCOCC1	7%
10	C=CCc1cccc2cc(C(=O)NC)c(=O)oc12	32µM*
11	CCC1CCCCN1C(=O)C1CC(c2cc(Cl)c(OC)cc2OC)=NO1 (stereo not drawn)	-8%
12	CCCCN(C)CCCNC(=O)Cn1c(=O)sc2ccccc21	9%
13	Cc1ccc(O)c(NC(=O)COc2cc(C)ccc2C)c1	-22%
14	CCOC(=O)c1cc2sc(C)cc2n1CC(=O)N1CCOCC1	-12%
15	CCc1ccc(NC(=O)c2cnc3scc(C)n3c2=O)cc1	?
16	COc1cccc(-n2nnnc2SCC(=O)Nc2cccc(C)n2)c1	-5%
17	Cc1csc2ncc(C(=O)NC(C)c3ccccc3)c(=O)n12 (stereo not drawn)	32µM*
18	O=C(OCCN=C1NS(=O)(=O)c2ccccc21)c1cccnc1	-6%
19	CCC(=O)NCCCOc1ccccc1	14%
20	COc1ccccc1Nc1nc(N)nc(CSc2nccc(C)n2)n1	10%
21	COc1ccccc1NS(=O)(=O)c1ccc(Cl)cc1	-2%
22	Cc1nc(C(C)(C)O)n(-c2ccccc2)n1	-3%
23	NCC1CCC(C(=O)O)CC1 (stereo not drawn)	0%
24	Nc1c(C(=O)N2CCCCC2)sc(=S)n1-c1ccccc1	?
25	O=C(Nc1cccc(F)c1)NC1CC2CCCC(C1)N2C1CC1 (stereo not drawn)	3%
26	Cc1cc2n(c1)CCn1c(C)ccc1-2	?
27	COc1ccccc1N1CCN(C[C@@H](O)COc2cccc3ccccc23)CC1	-1%
28	CCC(C(=O)Nc1cc(C)nn1-c1nc(C)cc(C)n1)c1ccccc1 (stereo not drawn)	2%
29	Cc1cccc(C2CC(c3ccccc3)Nc3ncnn32)c1 (stereo not drawn)	-2%
30	CC(=O)C1C(c2cccc(Oc3ccccc3)c2)NC(=O)NC1(O)C(F)(F)F (stereo not drawn)	6%

Next section (2 carried over from the part before).
No.	Molecule	HSD17B inhib
29	Cc1cccc(C2CC(c3ccccc3)Nc3ncnn32)c1 (stereo not drawn)	-2%
30	CC(=O)C1C(c2cccc(Oc3ccccc3)c2)NC(=O)NC1(O)C(F)(F)F (stereo not drawn)	6%
31	O=C(Cn1nnc(-c2ccccc2NC(=O)C2CC2)n1)NC1CCCCC1	-13%
32	CCC(CC)C(=O)N1c2ccc(F)cc2CCC1C (stereo not drawn)	-7%
33	COc1ccc(C2=NOC(C(=O)N3CCN(c4ccccc4OC)CC3)C2)cc1 (stereo not drawn)	-1%
34	Cc1ccc(S(=O)(=O)N2CCC(C(=O)OCC(=O)N3CC(=O)Nc4ccccc43)CC2)cc1	10%
35	Cc1nc2nc(C)c(CCC(=O)N3CCN(c4ccccn4)CC3)c(C)n2n1	?
36	CC(C)(C)c1nnc2sc(SCC(=O)c3cccs3)nn2c1=O	-6%
37	COc1cc(OC)cc(C(=O)Nn2cc(C(=O)N3CCN(C)CC3)c3ccccc3c2=O)c1	?
38	Cc1cc(C(=O)NCc2cccs2)n(-c2ccccc2)n1	1%
39	Cc1c(Cl)cccc1N(CC(=O)O)S(C)(=O)=O	5%
40	O=C(O)CC[C@@]1(c2ccccc2)NC(=O)NC1=O	10%[11.4 µM]
41	O=C(NCCS(=O)CCNC(=O)C(F)(F)F)C(F)(F)F	2%
42	O=C1CC(c2ccc(S(=O)(=O)NCc3ccncc3)cc2)CN1 (stereo not drawn)	8%
43	O=C(NCC(c1cccnc1)N1CCN(c2ccccc2F)CC1)C1CCCCC1 (stereo not drawn)	5%
44	CCCCN(c1ccccc1)c1ncnc2c1cnn2C	10%[11.4 µM]
45	Cc1ccc(S(=O)(=O)NC2=NCN(CCc3ccccc3)CN2)cc1	3%
46	O=C(O)c1ccccc1-c1ccccc1C(=O)Nc1ccc2c(c1)Cc1cc(F)ccc1-2	0%[11.4 µM]
47	Cc1cccc2c(=O)cc(C)n(CC(=O)N3CCCCC3)c12	0%
48	CCCC(=O)Nc1nnc(CC(=O)N2CCCC2)s1	19%
49	Cn1nnc2cc(C(=O)NCCC3=CCCCC3)ccc21	-1%
50	CC(C)CC(=O)N(c1ccc(F)cc1)C1C=CS(=O)(=O)C1 (stereo not drawn)	0%
51	CCc1cccc2c(C#N)cn(CC(=O)NCCOC)c12	5%
52	CCC1=C2CC[C@H]3C(=O)N(CC)C(=O)[C@H]3[C@H]2[C@@]2(C)C(=O)N(CC(=O)OC)C(=O)N2C1=O	10%
53	CCCNC(=O)c1c[nH]c2ccc(S(=O)(=O)N(C)c3ccc(OCC)cc3)cc2c1=O	?
54	CCCN(CCC)CCCNC(=O)CC1Nc2ccccc2NC1=O (stereo not drawn)	?
55	Nc1[nH]nc2nc3ccccc3nc12	-12%
56	CC(C)CC(=O)Nc1nnn(C)n1	4%
57	O=C(O)CCc1c2ccc(=O)c(O)c-2oc2c(O)c(O)ccc12	2.5µM*
58	COc1ccccc1N/C(N)=N/c1nc(CSc2ccc(C)cc2)cc(=O)[nH]1	1%
59	Cn1c2ccccc2c2c(C(=O)N3CCN(c4ccc(F)cc4)CC3)cn(C3CCCC3)c(=O)c21	?
60	Cc1ccc(-n2ncc3c(=O)n(CC(=O)N4CCCCCC4)cnc32)cc1	32µM*
61	CCc1c(O)nc(SCC(N)=O)n(-c2ccccc2F)c1=O	-9%
62	C=CCOC(=O)COc1ccc2c(C)c(C)c(=O)oc2c1	25µM*
63	CC(Oc1ccccc1)C(=O)N1CCCc2ccccc21 (stereo not drawn)	6%
64	O=C(Nc1ccc2c(c1)OCO2)C1CC(c2ccccc2Cl)=NO1 (stereo not drawn)	-3%
65	CCOC(=O)Cc1nnc(NC(=O)c2ncn[nH]2)s1	-9%
66	Cc1ccc(Cl)c(OCC(=O)Nc2ccc3c(c2)OCCO3)c1	?
67	COc1ccccc1-n1cnc2cc(NC(C)=O)ccc21	2%
68	Cc1c(C)[n+](=O)c2c(n1[O-])CCCCC2	-2%
69	Cc1nc2scc(-c3cccs3)c2c(=O)o1	?
70	O=C(CC(C(=O)O)C1CCCO1)NCCc1ccc2c(c1)OCO2 (stereo not drawn)	-4%
71	COc1ccc(CNC(=O)NC2CCCCC2)cc1	5%
72	CCOc1ccc(C(=O)NCC(=O)OC(C)C(=O)NCc2ccco2)cc1OCC (stereo not drawn)	2%
73	Cc1ccc2cc3c(NC(=O)c4ccco4)nn(CC(C)C)c3nc2c1	3%
74	Cc1cc(NC(=O)CCC(=O)N(CCc2ccccc2)C(C(=O)NC2CCCC2)c2ccco2)no1 (stereo not drawn)	8%
75	COc1ccc(-n2c(=O)c(-c3cccc(F)c3)nc3cncnc32)cc1	19%
76	CCCCN(C)C(=O)c1c[nH]c2ccc(S(=O)(=O)N3CCOCC3)cc2c1=O	32µM*
77	COc1ccccc1N1CCN(C(=O)CSc2nc(-c3ccco3)cc(C(F)(F)F)n2)CC1	-23%
78	COc1cc(C2=NOC(C(=O)N3CCCc4ccccc43)C2)cc(OC)c1OC (stereo not drawn)	5%
79	Cc1cc(C)c(C#N)c(N2CCCC2)n1	25µM*
80	C/C=C/CSc1nc2c(c(=O)[nH]c(=O)n2C)n1CCC	0%
81	CC(C)(O)/C=C1/Oc2ccccc2C1N1CCCCC1 (stereo not drawn)	-7%
82	O=C(NC1CCCCC1)C1c2ccccc2C(=O)N1Cc1ccco1 (stereo not drawn)	2%
83	NS(=O)(=O)c1ccc(S(=O)(=O)N(Cc2ccccc2F)CC2CCCO2)cc1 (stereo not drawn)	4%
84	Cc1ccc(N(CC(=O)Nc2ccc(C)cn2)S(=O)(=O)c2c(C)nn(C)c2C)cc1	-1%
85	Cc1c(NC(=O)CN2C(=O)c3ccccc3S2(=O)=O)c(=O)n(-c2ccccc2)n1C	-2%
86	COc1ccc(C)cc1NS(=O)(=O)c1cccc2cccnc12	4%
87	C[C@H](C(=O)C=[N+]=[N-])N1C(=O)c2ccccc2C1=O	5%
88	Nc1c(S(=O)(=O)O)cc(S(=O)(=O)O)c2ccc(N=Nc3ccccc3)c(O)c12	-12%[11.4 µM]
89	C=CCc1cccc(C2C(C)CCC3C(=O)N4C(Cc5c([nH]c6ccccc56)C4c4cc(OC)c(OC)c(OC)c4)C(=O)N32)c1 (stereo not drawn)	6%[11.4 µM]
90	C=CCn1c(SCC(=O)Nc2ccc3c(c2)CCC3)nnc1-c1cccs1	3%

For reference, part of the list above:
No.	Molecule	HSD17B inhib
76	CCCCN(C)C(=O)c1c[nH]c2ccc(S(=O)(=O)N3CCOCC3)cc2c1=O	32µM*
77	COc1ccccc1N1CCN(C(=O)CSc2nc(-c3ccco3)cc(C(F)(F)F)n2)CC1	-23%
78	COc1cc(C2=NOC(C(=O)N3CCCc4ccccc43)C2)cc(OC)c1OC (stereo not drawn)	5%
79	Cc1cc(C)c(C#N)c(N2CCCC2)n1	25µM*
80	C/C=C/CSc1nc2c(c(=O)[nH]c(=O)n2C)n1CCC	0%
81	CC(C)(O)/C=C1/Oc2ccccc2C1N1CCCCC1 (stereo not drawn)	-7%

Next section:
No.	Molecule	HSD17B inhib
91	CCOC(=O)N1CCC(N2Cc3cccc(C(=O)Nc4cc(F)ccc4F)c3C2=O)CC1	-2%
92	O=C(COC(=O)CCC(=O)c1cccs1)NCc1ccco1	25µM*
93	COc1ccc(CCCc2nnc(SCC(=O)Nc3nccs3)n2C)cc1C	?
94	CCN(CC)c1cc(Oc2ccccc2)ncn1	2%
95	CCCCCC(CC(=O)O)C(=O)O (stereo not drawn)	3%
96	O=C(NCCc1ccccc1)c1nc2c(nnn2Cc2ccccc2Cl)c(=O)[nH]1	-2%
97	O=C(NCc1cccs1)C1CCN(S(=O)(=O)c2ccc(Br)s2)CC1	?
98	Cc1nc2c([nH]1)C1(CCN(Cc3ccccc3)CC1)C(C#N)=C(N)O2	-12%
99	CCC(=O)Nc1ccc(F)c(Cl)c1	6%
100	O=S(=O)(c1ccccc1)N1CCN(c2ncnc3sc(-c4ccccc4)cc23)CC1	-7%
101	CCOc1ccc(N(CC)S(=O)(=O)c2ccc3c(c2)oc(=O)n3C)cc1	4%
102	O=C(NC1CCCc2ccccc21)C1CCN(S(=O)(=O)c2cccc3nonc23)CC1 (stereo not drawn)	7%
103	CCOc1ccc2[nH]c(=O)c(CN(CCN3CCOCC3)Cc3nnnn3C(C)(C)CC)cc2c1	-23%
104	Cc1nc2oc3c(NCc4ccccn4)ncnc3c2c2c1COC(C)(C)C2	32µM*
105	CCOC(=O)N1CCN(C(=O)CN(C)S(=O)(=O)c2ccc(OC)c(OC)c2)CC1	4%
106	CN1CCN(c2ncc3nc(CCc4ccccc4)c(=O)n(CCC#N)c3n2)CC1	?
107	COc1cc(CNC2CCCCCC2)cc(OC)c1O	6%
108	COc1ccc(Oc2ncc3ncc(=O)n(CCc4ccccc4)c3n2)cc1	0%
109	COC(=O)c1cc(Br)c(=O)n(CCN2CCCCC2)c1	1%
110	CCN(CC)C(=O)CN(c1ccc(F)c(Cl)c1)S(C)(=O)=O	0%
111	COC(=O)C(NC(=O)C(NC(=O)c1ccccc1)C(C)C)C(C)C (stereo not drawn)	0%
112	COC(=O)C1=C(C(=O)c2ccccc2)C(c2ccc(OC)c(OC)c2)Nc2nnnn21 (stereo not drawn)	-4%
113	c1ccc2nc3[nH]cnc3nc2c1	32µM*
114	Cc1nn(-c2ccccc2)c(Cl)c1C1C(C#N)=C(N)OC2=C1C(=O)CCC2 (stereo not drawn)	-3%
115	CCCCCO	-8%
116	C/C(CC1(O)/C(=N/O)CCc2nonc21)=N\O (stereo not drawn)	1%
117	CCOC(=O)Nc1ccc(S(=O)(=O)N2CCOCC2)cc1	6%
118	C=Cc1ccccc1C=C	3%
119	COc1ccccc1OCC(=O)NCCNC(=O)COc1ccccc1OC	2%
120	Cc1cc(=O)oc(C)c1C(=O)NCCC(C)C	-3%

Sorted by SMILES length (largest number first): some entries from above.
No.	Molecule	HSD17B inhib
110	CCN(CC)C(=O)CN(c1ccc(F)c(Cl)c1)S(C)(=O)=O	0%
109	COC(=O)c1cc(Br)c(=O)n(CCN2CCCCC2)c1	1%
115	CCCCCO	-8%

Further compounds.
No.	Molecule	HSD17B inhib
121	COCCn1nnnc1C(c1ccc(O)c(OC)c1)N1CCc2ccccc2C1 (stereo not drawn)	-1%
122	Cc1nc2cnc(Oc3cccc(Cl)c3)nc2n(C2CC2)c1=O	?
123	O=S(=O)(NCC1CCN(S(=O)(=O)c2ccccc2)CC1)c1ccccc1	6%
124	CCCc1[nH]nc2c1C(c1ccc(Br)s1)C(C#N)=C(N)O2 (stereo not drawn)	20µM*
125	COC(=O)c1cc(OC)c(OC)cc1NC(=O)c1ccc(Br)o1	?
126	COC(=O)C(C)Oc1ccc2c3c(c(=O)oc2c1)CCCCC3 (stereo not drawn)	32µM*

A portion of the library; count on the stated rates, not on these rows.
